RE007 growth inh: less growth of the S. pombe RE007 Vpr strain. AID 651644. 360,000 compounds, 0.21% hits. Potency, µM (doses to about 92.2 µM), for the others: at the top dose activity change, negative = less growth. S. pombe RE007 Vpr strain, BacTiter-Glo ATP luminescence, 24 h; control for the full effect not named in the record; active = well fitted falling curve with a large enough effect; inconclusive = small, poorly fitted or top-dose-only effect; inactive = no such curve, though single readings can be large or run the other way;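 also: % is scaled to controls: 0 for no effect and ±100 for the full control effect; nearly all actives have a fitted effect of over 50% in size; the assay follows cell death caused by Vpr and the record does not say whether a fall means rescue or toxicity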
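Fission yeast RE007 carrying one integrated HIV-1 vpr copy, seeded at OD 0.01 in PMG+AL medium with 23 nL pinned compound. Grown 24 h at 30 degrees; viability read by BacTiter-Glo luminescence after 5 min.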
NS1 inh: influenza NS1 inhibition; Potency, µM (series often up to 46.1 µM), inactives show top-dose activity, positive = more growth; AID 2326; 270,000 compounds, 0.4% hits; S. cerevisiae slowed by influenza A NS1, growth recovery by OD600; also: actives are rising curves; nearly all actives have a fitted effect of over 50% in size
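Growth recovery, yeast-based: influenza A NS1 expressed in S. cerevisiae causes slow growth, and suppressors are detected by OD600. The parent strain without NS1 is used as positive control.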
Cruzain inh Det: cruzain (T. cruzi) inhibition with detergent | purified cruzain, Z-FR-AMC fluorescence, 0.01% Triton | Potency, µM, for inactives: max response, negative = inhibition, hits mostly inhibitors | 200,000 compounds, 0.43% hits | AID 1478; active = well fitted curve in the direction sought with a large enough effect; inconclusive = small, poorly fitted or top-dose-only effect, or another doubt; inactive = no such curve, though single readings can be large; an effect the other way counts as inactive or inconclusive;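 also: plate controls were neutral wells for no effect and buffer without enzyme for full effect; nearly all actives have a fitted effect of over 40% in size; top concentration of the series not given in the record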
Target sequence (P25779 123-467 limits assumed): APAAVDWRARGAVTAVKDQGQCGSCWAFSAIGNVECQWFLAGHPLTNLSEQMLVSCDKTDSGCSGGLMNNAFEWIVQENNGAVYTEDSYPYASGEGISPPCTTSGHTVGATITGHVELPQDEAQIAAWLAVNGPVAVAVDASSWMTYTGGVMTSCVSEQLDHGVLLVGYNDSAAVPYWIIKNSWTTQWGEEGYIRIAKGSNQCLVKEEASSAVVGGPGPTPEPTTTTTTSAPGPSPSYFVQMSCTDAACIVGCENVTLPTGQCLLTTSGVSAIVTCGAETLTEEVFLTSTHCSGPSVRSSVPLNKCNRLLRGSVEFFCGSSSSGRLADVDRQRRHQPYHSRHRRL
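Detergent-containing arm of a paired screen for aggregation-based inhibition: 0.01% Triton X-100 present. Cruzain at 1.5 nM cleaved 2 uM Z-FR-AMC at pH 5.5 with 5 mM DTT; AMC fluorescence gain over 60 s measured activity.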
SARS PLpro yeast: blocks SARS-CoV papain-like protease in a yeast assay; S. cerevisiae expressing SARS-CoV PLpro, growth rescue; control for the full effect not named in the record; Potency, µM (top dose mostly 32.9 µM), for the others: top-dose activity, positive = growth rescue; 330,000 compounds, 0.19% hits; also: 0% is about no effect; nearly all actives have a fitted effect of over 55% in size; growth read by luminescence after 48 h
Marburg entry inh: inhibitors of Marburg virus binding or cell entry; Marburg virus pseudotyped entry inhibition, cell reporter; control for the full effect not named in the record; about a third of the inactives were read at about 46 µM; Potency, µM (top dose mostly 37.8 µM), inactives show at the top dose activity change, negative = inhibition, usual class: inhibitors; 300,000 compounds, 1.8% hits; AID 540276; active = well fitted inhibition curve with a large enough effect; inconclusive = small, poorly fitted or top-dose-only effect, or effect the other way; inactive = flat fitted curve, though single readings scatter; tested in HEK293 cells; about a fifth of its hits are not listed in these tables; also: % is scaled to controls: 0 for no effect and ±100 for the full control effect; luciferase read-out
2A StopGo: FMDV 2A StopGo reporter, luciferase signal | human cells with a luciferase reporter of 2A StopGo recoding; control for the full effect not named in the record | Potency, µM (titrated, usually from 57.9 µM), inactives show top-dose signal change, negative = less light | 410,000 compounds, 1.2% hits; active = well fitted falling curve with a large enough effect; inconclusive = small, poorly fitted or top-dose-only effect; inactive = no such curve, though single readings can be large or run the other way; tested in HEK293T cells; also: % is scaled to controls: 0 for no effect and ±100 for the full control effect; nearly all actives have a fitted effect of over 45% in size; luciferase light after 4 h
Cruzain noTriton: cruzain (T. cruzi) inhibition without detergent. purified cruzain, Z-FR-AMC fluorescence, no detergent. P25779. 200,000 compounds, 2.3% hits. Potency, µM, inactives show max response, negative = inhibition, usual class: inhibitors; active = well fitted curve in the direction sought with a large enough effect; inconclusive = small, poorly fitted or top-dose-only effect, or another doubt; inactive = no such curve, though single readings can be large; an effect the other way counts as inactive or inconclusive;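 also: plate controls were enzyme without inhibitor for no effect and buffer without enzyme for full effect; nearly all actives have a fitted effect of over 40% in size; top concentration of the series not given in the record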
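Purified cruzain at 1.5 nM, pre-incubated 15 min with compound at room temperature in 100 mM sodium acetate pH 5.5, 5 mM DTT, 0.00005% Triton X-100. Reaction started with 2 uM Z-FR-AMC; AMC fluorescence increase over 60 s gives rate.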
LASV entry inh: blocks Lassa virus binding to or entry into cells. 300,000 compounds, 1.2% hits. Lassa virus pseudotype entry inhibition, cell reporter; control for the full effect not named in the record. Potency, µM (titrated, usually from 37.9 µM), for inactives: at the highest dose activity change, negative = inhibition, usual class: inhibitors. AID 540256; active means well fitted inhibition curve with a large enough effect; inconclusive means small, poorly fitted or top-dose-only effect, or effect the other way; inactive means flat fitted curve, though single readings scatter; tested in HEK293 cells; also: % is scaled to controls: 0 for no effect and ±100 for the full control effect; nearly all actives have a fitted effect of over 50% in size; luciferase read-out
The depositor's hits bear a star; ? = inconclusive; . = not tested or not shown; & = joins results of further samples; [ ] = dose if it differs, or a comment. Unless noted, calls follow the shape of the dose curve; as a rule, active means well fitted rising curve with a large enough effect; inconclusive means small, poorly fitted or top-dose-only effect; inactive means no such curve, though single readings can be large or run the other way. Potency is read from the fitted curve at half-maximal effect.

SMILES	RE007 growth inh	NS1 inh	Cruzain inh Det	SARS PLpro yeast	Marburg entry inh	2A StopGo	Cruzain noTriton	LASV entry inh
O=C(CCc1c[nH]c2ccccc12)NCCc1ccc(Cl)cc1	-2%	-20%	.	-2%	?	-23%	.	?
CC(C)(C)C1CCC(=NNC(=O)C(=O)NC2CCCCC2)CC1 (stereo not drawn)	-28%	13%	6.9%	-10%	?	-1%	17%	1%
Cc1ccc(-n2nc(C)c3c(C)c(CCC(=O)NCc4ccccc4)c(C)nc32)cc1	-8%	-1%	2.7%	1%	2%	-23%	-8%	.
O=c1nccc(NCc2ccco2)[nH]1	20%	-3%	1.9%	27%	18%&18%	7%	-7%	-4%
CN(c1ccccc1)S(=O)(=O)c1ccc(NC(=S)NC(=O)c2ccccc2)cc1	-12%	6%	1.8%	0%	-4%	-27%	?	?
COc1ccc2c(c1)O[C@@H](c1cccc(C(F)(F)F)c1)[C@H](OC(=O)NCCc1ccc(OC)c(OC)c1)C2=O	.	?	-5.4%&-7.2%	-10%	-44%	.	17%&7%	?
COc1ccc(-c2nn(-c3ccccc3)cc2/C=N/Nc2ccc(S(N)(=O)=O)cc2[N+](=O)[O-])cc1OC	6%	6%	.	0%	?	-14%	.	?
CC1CCN(C(=O)Cn2c(=O)c3cccn3c3ccccc32)CC1	10%	-4%	.	-5%	14%[46.1 µM]	-2%	.	-21%[46.1 µM]
O=C(COc1ncnc2scc(-c3ccc(Cl)cc3)c12)NCc1ccco1	27%	11%	-3.8%	4%	?	?	0%	-1%
O=c1c2ccccc2nc(-c2ccccc2)n1-c1ccccc1O	-22%	4%	.	2%	-14%[46.1 µM]	-1%	.	?
Cc1nc2ncnn2c(C)c1CCC(=O)N1CCCCC1	-1%	0%	4.4%	2%	5%	15%	-12%	9%
Oc1c(Br)cc(Br)cc1/C=N/n1c(-c2ccccc2)n[nH]c1=S	?	-83%	.	-6%	.	0%	.	.
Cc1nc2c(sc(=S)n2Cc2ccco2)c(=O)n1CC(=O)Nc1ccc(F)cc1	6%	-10%	.	-3%	.	?	.	.
C=CCc1cc(C=Nc2ccc(N3CCOCC3)cc2)cc(OCC)c1O	-8%	.	.	.	?	-12%	.	-12%[46.1 µM]
CCN(Cc1ccccc1)C(=O)CN1C(=O)COc2ccc(S(=O)(=O)NC3CCCC3)cc21	0%	-15%	.	-2%	?	22%&23%	.	4%&2%[46.1 µM]
O=C(Nc1ccc(OC(F)(F)F)cc1)C1CCCN(S(=O)(=O)c2ccc(Br)s2)C1 (stereo not drawn)	.	.	-9.4%	.	-24%[46.1 µM]	-29%	-2%	0%[46.1 µM]
Cc1c(CCCN)c2ccccc2n1Cc1ccccc1	11%	1%	.	-2%	.	0%	.	.
CCOC(=O)N1CCN(C(=S)Nc2ccc(C)cc2C)CC1	4%	16%	.	0%	29%[46.1 µM]	-7%	.	-19%
CN(C)c1ccc(C=C2C=CC=C2)cc1	-17%	.	.	.	0%	42%[activator]	.	14%
O=C(N/N=C/c1cc(Cl)cc([N+](=O)[O-])c1O)c1ccccc1NS(=O)(=O)c1cccs1	1%	3%	.	4%	.	-3%	.	.
C/C(=N\NC(=O)COc1ccccc1[N+](=O)[O-])c1cccs1	-8%	.	.	-1%	-9%[46.1 µM]	11%	.	6%
O=C(CSc1nc2ncc(Br)cc2[nH]1)c1cccc([N+](=O)[O-])c1	12%	3%	-8.1%	-18%	-24%	8%	?	-17%
CCCNC(=O)c1ccc2c(c1)nc(C)n2-c1cccc(C)c1	2%	-4%	-0.3%	-5%	?	2%&-10%	-3%	?
CC1=C(C)CC(C(=O)NNC(=O)c2csc3c2CCC(C(C)(C)C)C3)C(C(=O)O)C1 (stereo not drawn)	12%	29%	-12%	7%	?	-23%	?	4%
Cc1ccc(S(=O)(=O)N(CCCO)CC(O)CON=C2c3ccccc3-c3ccccc32)cc1 (stereo not drawn)	-3%	9%	-7.7%	-31%	?	35µM*	?	?

Continued:
SMILES	RE007 growth inh	NS1 inh	Cruzain inh Det	SARS PLpro yeast	Marburg entry inh	2A StopGo	Cruzain noTriton	LASV entry inh
Cc1oc(-c2ccc(Cl)cc2)nc1CS(=O)CC(=O)NCc1ccccn1 (stereo not drawn)	-1%	27%	.	0%	.	-11%	.	.
CC(=O)c1ccccc1NC(=O)c1ccc(OCc2c(C)noc2C)cc1	11%	.	.	-1%	?	?	.	0%[46.1 µM]
O=C(Cc1ccccc1)Oc1ccc([N+](=O)[O-])cc1	-20%	13%	.	-2%	3%	3%	.	?
CCCCCCCCOC(=O)C(NC(=O)CCC(=O)Nc1ccc(S(N)(=O)=O)cc1)C(O)c1ccccc1 (stereo not drawn)	16%	2%	2.9%	-6%	0%	7%	7.9µM*	-12%
O=C(c1cc(Cl)ccc1Cl)N1CCOCC1	-19%	0%	0.4%	-9%	-1%	.	-8%	-9%
O=C(Cc1ccc(-c2ccccc2)cc1)Nc1ncccc1O	?	-25%	.	-10%	.	59%[activator]	.	.
CC(=O)CCn1cnc([N+](=O)[O-])n1	6%	.	.	-2%	17%[46.1 µM]	4%	.	9%
Cc1ccc(N=C2NC(=O)/C(=C\c3ccco3)S2)cc1	?	-7%	-6.4%	-5%	7%	47%[activator]	?	?
Cc1cccc2cc(CN(Cc3ccccc3)C(=O)c3cccc(F)c3)c(Cl)nc12	-8%	7%	-1.1%	-11%	?	.	-25%	-3%
CCCCNC(=O)/C=C/c1ccc(S(=O)(=O)Nc2ccc(OC)cc2)cc1	4%	.	.	0%	?	23%	.	?
O=C(CNC(=O)c1cccs1)N=Nc1c(O)[nH]c2ccc(Br)cc12	3%	13%	.	2%	20%[46.1 µM]	-8%	.	1%[46.1 µM]
CCC(C)C(=O)Nc1cc([N+](=O)[O-])ccc1Cl (stereo not drawn)	-23%	8%	-0.5%	5%	-2%	-1%	8%	?
O=C(Nc1cc(C(F)(F)F)ccc1F)C1CCC1	-2%	-10%	-0.2%	-1%	7%[46.1 µM]	-5%	4%	10%
O=C(CNC(c1ccccc1)c1ccccc1)Nc1ccccc1Br	4%	-3%	.	-6%	.	-27%	.	.
CCN(CC)S(=O)(=O)c1ccc(NC=C(C#N)C#N)cc1	4%	-1%	.	1%	4%[46.1 µM]	?	.	11%
O=C(c1cccc(S(=O)(=O)N2CCCC2)c1)c1nnc(-c2ccncc2)o1	-12%	-9%	3.7%	-8%	9%	.	-13%	-3%
CC(C)c1ccc(C2(C)NC(=O)N(C(C)C(=O)Nc3ccc(N4CCOCC4)cc3)C2=O)cc1 (stereo not drawn)	5%	.	.	3%	-6%[46.1 µM]	-15%	.	4%
CCOC(=O)Cn1c(CN(Cc2ccccc2)Cc2ccccc2)nc2c1c(=O)n(C)c(=O)n2C	-1%	.	-5.0%	-5%	-16%	?	?	?
Cc1ccc([N+](=O)[O-])c(OCCN2C(=O)NC(C)(C)C2=O)c1	0%	11%	.	0%	-6%	-9%	.	2%
Cc1n[nH]c(=S)n1-c1ccc(Cl)cc1	3%	5%	.	-1%	7%	-4%	.	4%
CC(C)(C)OC(=O)[C@H](Cc1ccccc1)NC(=O)c1nc[nH]c1C(=O)N1CCN(C(=O)OC(C)(C)C)CC1	8%	-10%	.	0%	.	-22%	.	.
CCC(=NCCc1c(C)[nH]c2ccccc12)C1=C(O)CC(c2ccccc2)CC1=O (stereo not drawn)	13%	3%	-5.1%	-38%	?	?	-8%	?
COc1ccc(/C=N/OCC(=O)N2CCCC2)c(OC)c1	9%	.	.	0%	?	0%	.	?
CC(C)Nc1ncnc2[nH]ncc12	7%	.	.	.	6%[46.1 µM]	-9%	.	1%[46.1 µM]
O=C(Nc1cc(Cl)ccc1Cl)c1cc(S(=O)(=O)NCCc2ccccc2)ccc1F	.	.	-0.3%	.	.	6%	4%	6%[46.1 µM]

(further entries)
SMILES	RE007 growth inh	NS1 inh	Cruzain inh Det	SARS PLpro yeast	Marburg entry inh	2A StopGo	Cruzain noTriton	LASV entry inh
CC(=O)NC(N(C#N)c1nc(Cl)nc(N(C)C)n1)C(Cl)(Cl)Cl (stereo not drawn)	12%	1%	.	0%	-4%	-13%	.	6%
Cc1ccc(S(=O)(=O)N(C)C)cc1NC(=O)CCNC(=O)c1ccco1	34%	4%	.	-1%	6%[46.1 µM]	-16%	.	2%[46.1 µM]
Cc1c(NC(=O)c2ccc(Cl)s2)c(=O)n(-c2ccccc2)n1C	-1%	12%	1.5%	8%	0%	-6%	-1%	-2%
O=C(NCCCn1ccnc1)c1sc2cccc(F)c2c1Cl	-3%	-3%	-8.2%	-6%	-15%	-3%	1%	2%
O=C1CCCN1Cc1ncnn1-c1ccccc1	-8%	0%	3.8%	6%	-9%	-9%	-9%	-2%
CCn1c(CNC(=O)c2ccco2)nnc1SCC(=O)c1ccc(F)cc1	-4%	-4%	.	0%	-2%[46.1 µM]	-5%	.	29%[46.1 µM]
COc1ccc(Cl)cc1NC(=O)COC(=O)C1=NNC(=O)CC1	6%	.	.	2%	8%	-10%	.	?
O=S(=O)(Cc1ccccc1)N1CCN(Cc2ccc(F)cc2Cl)CC1	18%	14%	.	-5%	.	0%	.	.
N#CC1=C(N)NC(=S)C(C(N)=O)C1c1ccc(Cl)cc1Cl (stereo not drawn)	-11%	9%	.	0%	.	?	.	.
COc1cccc(N(C(=O)Cn2nnc(-c3ccc(C)o3)n2)C(C(=O)NC(C)(C)C)c2cccs2)c1 (stereo not drawn)	-10%	-15%	-7.2%	-2%	-3%	?	8%	0%
O=C1NC(=S)S/C1=C\c1cc(Cl)cc(Cl)c1O	-21%	.	.	.	-6%	?	.	12%
COc1ccc2[nH]c3c(c2c1)CCN1C(=O)C(CC(=O)NCCc2ccccn2)C[C@H](C(=O)N(C(C)C)C(C)C)[C@@]31C (stereo partly drawn)	-13%	.	.	14%	1%	-12%	.	.
CCC(=O)N1CCN(c2cc(C)ccc2C)CC1	-1%	-9%	0.4%	1%	-13%	-7%	-5%	-8%
Cc1cccc(N2CCN(S(=O)(=O)c3ccc4c(c3)C(C)(C)C(=O)N4C)CC2C)c1 (stereo not drawn)	5%	-2%	.	-9%	?	-5%	.	?
